# Menin MLL FP FL: qHTS Assay for Inhibitors Targeting the Menin-MLL Interaction in MLL Related Leukemias: Competition With Fluorescein Labeled MLL-derived Peptide; Fluorescence polarization, fluorescein-MLL peptide displacement from menin; FP activity change, % at 61.4 µM; 290,000 tested, under 10 active; inconclusive = falling polarisation curve, or a change in total fluorescence; inactive = total fluorescence flat and polarisation flat or rising; no compound was filed as active; the % refers to the polarisation; negative = inhibition;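 further: % of control where 0% means no effect; inhibitors lower the polarisation; unlabelled MLL peptide was the positive control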
# TRPV1 potentiator: HTS Assay for Compounds that Act as Potentiators of the Vanilloid Receptor 1; hit rate 0.02% among 320,000; potentiation, % at 8.33 µM; TRPV1-expressing cells, Fluo-8 calcium influx, capsaicin EC20 potentiation; host cell line not named in the record; control for the full effect not named in the record; AID 540277, 2011; Transient receptor potential cation channel subfamily V member 1 (Homo sapiens), Q8NER1; active means potentiation above 80%; inconclusive means 30% to 80%; inactive means below 30%; further: 0% is about no effect
#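 TRPV1-expressing cells were cultured overnight at 35.5C and loaded with Fluo-8 calcium dye for 40 to 90 min at room temperature. After a 10 s baseline, compound was added and calcium influx was read kinetically for 3 min (ex 480/em 520 nm).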
# ClpP mod: qHTS Assay for Activators of ClpP. ATP-dependent Clp protease proteolytic subunit (Bacillus subtilis (strain 168)), P80244. hit rate 1.9% among 340,000. AID 651965, 2013. Potency, µM (titrated, usually from 57.5 µM), without a hit: top-dose activity change, negative = active. purified B. subtilis ClpP, FRET peptide cleavage, 20 min; active = well fitted falling curve with a large enough effect; inconclusive = small, poorly fitted or top-dose-only effect; inactive = no such curve, though single readings can be large or run the other way; further: potency means the concentration at half of the fitted maximal effect; the source files actives as falling curves though it sought activators and does not explain the sign; nearly all actives have a fitted effect of over 65% in size; many hits overshoot -100%
# Target sequence (P80244 whole entry, looked up): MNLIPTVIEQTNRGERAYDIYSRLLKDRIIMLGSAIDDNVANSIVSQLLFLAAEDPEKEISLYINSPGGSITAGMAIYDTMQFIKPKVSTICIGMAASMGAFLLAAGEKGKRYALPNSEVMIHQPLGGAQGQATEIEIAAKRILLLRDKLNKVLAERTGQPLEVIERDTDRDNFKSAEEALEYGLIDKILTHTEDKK
#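 ClpP 10 microg/mL final, pH 8 Tris/KCl buffer with BSA, glycerol, Tween-20; compound pinned in; FRET-FV substrate; RT 20 min; Ex320/Em430; ΔFRET vs ADEP 5.8 microM, DMSO, no enzyme.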
# TRPML1 inh: qHTS for Inhibitors of the Human Mucolipin Transient Receptor Potential 1 (TRPML1); AID 624415, 2012; activity change, negative = inhibition, % (test concentration not listed); hit rate 0.02% among 390,000; TRPML1-inducible cells, Ca2+ dye fluorescence, FDSS; stronger effect = lower value; inhibition of EC80 agonist-evoked calcium signal; Mucolipin-1 (Homo sapiens), Q9GZU1; in the data active means activity change below about -50%; inconclusive means about -30% to -50%; inactive means above about -30%;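 further: stimulus is agonist 54-4 at its EC80 concentration; on the % scale 0 is the no-effect control and ±100 the full control effect; compound concentration not given in the record; the text of the record puts the active cut at -80%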
# Target sequence (Q9GZU1 whole entry, looked up): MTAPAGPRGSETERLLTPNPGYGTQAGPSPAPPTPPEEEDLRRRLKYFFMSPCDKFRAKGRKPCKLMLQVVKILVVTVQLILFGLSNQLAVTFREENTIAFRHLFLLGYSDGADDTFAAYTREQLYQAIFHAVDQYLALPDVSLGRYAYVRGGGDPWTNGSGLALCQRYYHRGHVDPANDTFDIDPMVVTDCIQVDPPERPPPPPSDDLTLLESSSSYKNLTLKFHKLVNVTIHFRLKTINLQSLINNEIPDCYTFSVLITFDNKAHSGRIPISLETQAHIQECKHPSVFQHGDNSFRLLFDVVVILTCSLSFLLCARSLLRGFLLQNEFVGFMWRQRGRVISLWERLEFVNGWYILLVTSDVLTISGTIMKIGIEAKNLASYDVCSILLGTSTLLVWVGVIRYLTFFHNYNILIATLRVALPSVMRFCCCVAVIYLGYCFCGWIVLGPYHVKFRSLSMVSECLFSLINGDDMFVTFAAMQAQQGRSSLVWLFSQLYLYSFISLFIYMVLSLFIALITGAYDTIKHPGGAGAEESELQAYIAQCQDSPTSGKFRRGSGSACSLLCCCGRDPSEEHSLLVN
#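 Calcium fluorescence in TRPML1-DL cells induced overnight with Tet: a 110 s read after compound pin addition, then a 110 s antagonist read after challenge with 54-4 at 4 uM final (EC80).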
# TRPML1 ag: qHTS for Agonists of the Human Mucolipin Transient Receptor Potential 1 (TRPML1). hit rate 0.12% among 410,000. Mucolipin-1 (Homo sapiens), Q9GZU1. TRPML1-expressing cells, Ca2+ dye fluorescence, FDSS; host cell line not named in the record; reference of the full effect not given here. activation, % (concentration not given with the values); in the data active = activation above about 50%; inconclusive = about 30% to 50%; inactive = below about 30%; further: 0% is about no effect; the text of the record puts the active cut at 80%
#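 Kinetic FDSS Ca2+ read in Tet-induced TRPML1-DL cells (ABD Ca8 dye plus quencher, 45-90 min RT loading): baseline, then compound, then 110 s agonist window; EC80 agonist 54-4 at 4uM final added afterwards for a 110 s antagonist window.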
# PINK1 expr mod: A Quantitative High throughput Screen to Identify Chemical Modulators of PINK1 Expression; AID 624263, 2012; Potency, µM (titrated, usually from 76.6 µM), without a hit: top-dose activation (PINK1 increase), most hits filed as activators; hit rate 0.2% among 410,000; PINK1 immunofluorescence, high-content cytometry, 24 h; active = well fitted activation curve with a large enough effect; inconclusive = small, poorly fitted or top-dose-only effect; inactive = flat fitted curve, though single readings scatter; cell line not stated here;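 further: potency means the concentration at half of the fitted maximal effect; % of control where 0% means no effect; nearly all actives have a fitted effect of over 65% in size; a mitochondrial uncoupler was the plate control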
#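 Compound titrations (5 concentrations, 24 h) on a stable cell line; DMSO and CCCP controls. Endpoint: fixed-cell PINK1 immunofluorescence with mitochondrial, cell and nuclear markers, scanned by microplate cytometer.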
# Sfp PPTase inh: qHTS Assay for Inhibitors of Bacillus subtilis Sfp phosphopantetheinyl transferase (PPTase). 4'-phosphopantetheinyl transferase ffp (Bacillus subtilis), Q9F4F7. Biochemical Sfp PPTase activity, qHTS. Potency, µM, inactives show max response, negative = inhibition, most hits filed as inhibitors. hit rate 3.5% among 310,000. AID 1490, 2009; active means well fitted inhibition curve with a large enough effect; inconclusive means small, poorly fitted or top-dose-only effect, or another doubt; inactive means no such curve, though single readings can be large or run the other way;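 further: the enzyme is Sfp with the accession as filed and its product quenches rhodamine fluorescence; potency means the concentration at half of the fitted maximal effect; 0% = enzyme reaction without inhibitor and -100% = no enzyme wells; top concentration of the series not given in the record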
#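 Sfp 15 nM + cpd, 15 min RT; start w/ rhodamine-CoA 5 uM, BHQ-2-YbbR 12.5 uM (final); 50 mM Hepes pH 7.6, 10 mM MgCl2, 0.01% NP-40, 0.01% BSA; read 525/598 nm at 0 and 30 min.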
# * hit, by the source's call; ? = inconclusive; · = no result given; & = joins results of further samples; [ ] = remark or other dose.
SMILES,Menin MLL FP FL,TRPV1 potentiator,ClpP mod,TRPML1 inh,TRPML1 ag,PINK1 expr mod,Sfp PPTase inh
O=C(C1CCN(S(=O)(=O)c2cccc3cccnc23)CC1)N1CCN(Cc2ccccc2)CC1,·,·,1.8%,2.7,-0.6,2.5%,·
Cc1ccc(N(C)S(=O)(=O)c2c(C)noc2/C=C/N(C)C)cc1,1.8,-8.5,0.2%,4.6,-0.2,0.5%,0.9%
COc1cc(/C=N/NC2=NS(=O)(=O)c3ccccc32)ccc1OC(C)=O,-3.0,-0.1,-27.8%,-10.1,-0.7,2.3%,4.2%
COC(=O)C(CC(C)C)NC(=O)c1ccc(F)cc1 (stereo not given),4.4,0.3,-0.8%,-1.9,0.2,-2.5%[38.3 µM],6.7%
CCCCC1NC(C(=O)O)CS1 (stereo not given),2.1,?,-1.6%,-2.3,-1.1,0.9%,?
CC1=CC2=NC(=O)/C(=C\c3cc(C)n(-c4cccc(Cl)c4)c3C)C(=N)N2O1,6.7,-29.4,0.0%,-18.4,1.3,2.6%,-26.1%
CC(OC(=O)CCCNC(=O)c1ccc(Cl)cc1)C(=O)N(C)Cc1ccccc1 (stereo not given),0.0,0.6,-1.1%,-4.3,1.3,-1.3%,0.5%
Cn1c(=O)n(C/C=C/c2ccccc2)c(=O)c2c1nc1n2CCN1c1ccc(Cl)cc1,·,·,-16.1%,0.4,0.0,1.3%,·
COC(=O)[C@H]1C[C@@]2(O)CN(S(=O)(=O)c3ccc(C)cc3)C[C@@]2(OC(=O)Nc2c(C)noc2C)C[C@H]1C(=O)OC,·,·,-3.0%,-3.3,-0.2,3.5%,·
CC1CCCCC1NC(=O)c1ccc(S(=O)(=O)N2CCCC2)cc1 (stereo not given),1.1,-11.7,1.3%,-16.9,0.9,-1.0%,-6.1%
CCOC(=O)c1cc2c(=O)n3cccc(C)c3nc2n(Cc2ccco2)c1=NC(=O)c1ccccc1,1.6,-10.6,-10.5%&-27.1%,8.4&7.0,0.3&-1.0,15.6%&11.7%,-16.8%
O=C(NC1(C(F)(F)F)NC(=O)N(c2ccccc2)C1=O)c1cccs1 (stereo not given),4.5,-0.8,2.2%,-10.7,0.3,-0.4%,-1.1%
CC(=O)N1CCc2c(sc(NC(=O)C3CCCN3S(=O)(=O)c3cccs3)c2C(N)=O)C1 (stereo not given),·,7.4,3.98µM*,-3.1,2.5,0.8%,·
Cc1ccc(Cn2c(=O)n(-c3ccc(C)c(C)c3)c(=O)c3c(C)c(C)sc32)cc1,·,·,0.6%,2.7,-1.1,8.9%,·
Cc1ccc(Nc2c([N+](=O)[O-])cc(C(=O)N3CC(=O)Nc4ccccc43)cc2[N+](=O)[O-])c(C)c1,1.4,3.0,0.5%,-13.2,1.8,-0.9%,-6.1%
CC(Sc1ncccn1)C(=O)NC1(C#N)CCCCC1 (stereo not given),·,9.9,1.3%,11.3,1.6,0.3%,·
CN(C)/C=C1\Cc2ccccc2C1=O,?,8.0,-6.7%,25.8,-0.1,1.0%,0.4%
O=C(NCC(=O)N1CCN(Cc2ccccc2)CC1)c1ccc(Br)o1,2.3,-30.4,0.0%,11.5,-0.3,7.6%,9.9%
COc1ccc(Cl)cc1-c1n[nH]c(=S)n1C,0.1,-5.5,1.4%,-0.9,-0.5,0.9%,-2.4%
Cc1ccc(SC[C@H](Cc2ccccc2)N2CCN(CC(C)C)CCC2=O)cc1,0.6,-19.4,0.1%,1.5,1.5,?,0.2%
COc1cc(CNc2nccn3ccnc23)cc(OC)c1,·,·,-1.5%,·,-1.3,-0.9%,·
COC(=O)c1ccc(COC(=O)CNC(=O)c2cccs2)cc1,·,2.2,-2.2%,0.1,0.2,-1.4%,2.0%
COc1cc(OC)cc(N(C(=O)CNC(=O)c2cccs2)C(C(=O)NCC2CCCO2)c2ccc(OC)c(OC)c2)c1 (stereo not given),3.4,-1.1,·,0.1,-0.2,-2.3%,1.1%
C[C@]12C(=O)N(c3ccc(C(F)(F)F)cc3)C(=O)N1[C@H]1c3ccccc3OC[C@@H]1[C@H]2c1ccccc1,·,·,-1.8%,-5.4,0.7,1.0%,·
C/C(=N\Nc1nccnc1Cl)c1ccc(O)cc1,0.1,5.0,0.4%,1.1,-0.2,0.7%,?
CCC(Sc1nncn2c1cc1oc(C)cc12)C(=O)Nc1ccc(F)cc1 (stereo not given),·,·,8.9%,-3.0,-0.4,-0.8%,·
N=c1c(C(=O)NCC2CCCO2)cc2c(=O)n3ccccc3nc2n1Cc1ccco1 (stereo not given),1.2,-19.5,·,10.7,-0.6,1.4%,23.0%
CSc1nnc(NC(=O)c2ccc(S(=O)(=O)N(C)C)cc2)s1,-1.6,0.2,·,-2.3,0.0,1.6%,-21.5%
O=C(CSc1nc2ccccc2[nH]1)Nc1cccc(S(=O)(=O)N2CCOCC2)c1,-1.6,-0.8,-3.7%,7.6,1.4,1.4%,-4.3%
C#CCSc1nnnn1-c1ccc(OCC)cc1,1.1,21.6,0.6%,8.0,-0.1,0.1%,-4.1%
O=C(NCc1ccncc1)C1CCCN1S(=O)(=O)c1ccc(Cl)cc1 (stereo not given),·,-7.3,·,-6.6,0.1,-0.5%,0.5%
CCC(=O)c1ccc(NC(C)=O)cc1O,-2.3,-9.4,-8.7%,12.5,-0.4,1.6%,14.6%
O=C(Cn1nc(C(F)F)cc1C(F)F)NNC(=S)Nc1ccc([N+](=O)[O-])cc1,-5.6,4.8,·,-9.9,-0.4,1.5%,7.5%
COc1cc(NC(=S)N2CCN(C(=O)C3CCCO3)CC2)c(OC)cc1Cl (stereo not given),4.1,7.1,1.7%,9.6,0.0,0.1%,8.9%
COCCCN1C(=O)c2[nH]nc(-c3ccccc3O)c2C1c1ccc(Cl)cc1 (stereo not given),0.6,-8.3,-3.5%,29.8,0.5,0.4%,4.4%
CCCn1c(SC(C(=O)Nc2cccc(OC)c2)c2ccccc2)nc2ccccc2c1=O (stereo not given),5.6,18.5,1.5%,-16.2,0.4,0.3%,18.3%
CCOCCCNC(=O)C(c1ccc(Cl)cc1)N1CCN(c2ccccc2)CC1 (stereo not given),2.0,·,-4.3%,-0.7,-1.5,0.9%,28.9%
Cc1ccc(S(=O)(=O)N2CCC(C(=O)C3C(=O)CC(C)(C)CC3=O)CC2)cc1,0.3,-0.8,·,7.6,-0.8,-1.0%,-2.8%
N#CC(c1ccccc1)C(CC(=NO)c1ccccc1)c1ccccc1 (stereo not given),·,·,-0.5%,5.3,-0.2,21.6%,·
CCOC(=O)c1cnc(SCCc2ccccc2)nc1N,2.3,-26.1,-3.2%,-4.1,1.6,4.9%,7.1%
CC1CN(C(=O)Nc2ccc3c(c2)OCO3)CC(C)O1 (stereo not given),-0.3,-0.1,0.3%,42.4,0.3,4.7%[38.3 µM],-1.6%
CCC(Oc1ccccc1)C(=O)Nc1ccc(S(=O)(=O)N2CCOCC2)cc1 (stereo not given),7.0,-9.1,0.6%,-2.9,2.3,·,11.5%
Cc1c(C(=O)NCc2ccc(N(C)C)cc2)oc2c1-c1nn(Cc3cccc(Cl)c3)cc1CC2,·,·,?,10.1,1.7,4.6%,·
COc1ccc2cc(C(=O)NCCc3ccccc3)[nH]c2c1,2.4,-13.6,-13.9%,·,·,3.1%,12.1%
Cc1ccc(Cl)cc1-n1ncc2c(N3CCC(C(N)=O)CC3)ncnc21,·,·,-2.9%,0.4,1.6,0.1%,·
CC(C)Cc1nnc(NC(=O)CCC(=O)N2CCN(Cc3ccc(F)cc3)CC2)s1,-3.5,-1.7,-1.1%,-7.7,-1.0,-0.7%,5.3%
COc1nc(/C=C/N(C)C)c([N+](=O)[O-])c(OC)n1,-0.3,-10.1,-0.2%,-13.0,-0.8,-1.0%,-10.0%
Clc1ccc(CSc2nnc(CNc3cccc(Cl)c3)o2)cc1,1.4,12.9,0.8%,-7.7,2.0,14.8%[38.3 µM],5.8%
CCC/C=C1\CCCOC(C(=O)NCc2ccccc2)(C(F)(F)F)C1 (stereo not given),-2.4,·,·,31.0,1.3,·,-1.9%
O=C(CNCc1ccccn1)Nc1cc(S(=O)(=O)N2CCCCC2)ccc1Cl,-1.0,0.1,0.0%,-11.3,-1.1,4.5%,11.6%
Cc1csc(NC(=O)CS(=O)(=O)c2ccccc2)n1,5.3,1.5,·,5.5,-0.6,-1.1%,-10.1%
CCOC(=O)c1c(NC(=O)CSc2cn(CC)c3ccccc23)sc2c1CCC2,1.0,27.4,-0.5%,15.0,-0.8,0.2%,2.1%
O=C(NCc1cccnc1)c1ccccc1CCc1ccccc1,-0.1,1.4,0.6%,16.5,0.5,0.1%,21.0%
Cn1cnc(S(=O)(=O)N2CCCCC2c2cc(C(=O)NCc3ccc(F)cc3)no2)c1 (stereo not given),·,·,-3.5%,·,-0.4,-0.1%,·
Cc1cccc(/N=C/c2c(C)[nH]n(-c3ccccc3)c2=O)n1,0.2,-5.1,-8.2%,·,·,3.5%,11.9%
COc1ccc(/C=C/C(=O)Nc2c(C)nn(C)c2C)cc1COc1ccc(Cl)cc1Br,-0.7,-11.4,1.9%,-4.0,0.1,6.3%[38.3 µM],9.0%
CCOC(=O)c1cc(-c2ccccc2)n(CC(=O)Nc2ccccc2OCC)c1C,·,·,1.6%,9.9,4.6,0.5%,·

# Assay outcomes: PubChem, National Center for Advancing Translational Sciences (NCATS)
